# Source: PubChem BioAssay (several laboratories)
# Vif A3G: inhibitors of Vif binding to APOBEC3G peptide, primary screen, biochemical, TR-FRET, GST-Vif 1-94, biotin-A3G peptide, dose response retest (AID 1117319); TR-FRET GST-Vif / biotin-A3G peptide binding; higher % means a stronger effect; test concentration not given here; strong numbers were not always called active; inhibition, %; hits with a dose series show IC50 in µM; actives 0.57% (n = 260,000);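 active means above the screen mean plus three standard deviations and confirmed in dose response; inconclusive means results disagree or hit not tested in dose response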;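 further: Vif residues 1-94 fused to GST binding biotinylated APOBEC3G peptide 110-148; 0% = full assay without inhibitor and 100% = GST in place of GST-Vif; retest series ran down from 100 µM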
# Calb FLC: C. albicans growth modulation with fluconazole. actives 0.57% (n = 300,000). growth inhibition, % (no concentration beside the values). C. albicans CaCi-2 (fluconazole-resistant clinical isolate) + fluconazole, Alamar Blue growth, 48 h. AID 1979;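 active means most replicates above 75%; inconclusive means exactly half above 75%; inactive means most below 75%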;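 further: all wells also contain fluconazole at 8 µg/ml as a sub-toxic cotreatment; 0% = median of DMSO wells and 100% = median of geldanamycin control wells; wells of about 8 µL received 7.5 nL stock; the first replicate is given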
# RanGTP-Impb inh: disruptors of Ran-importin-beta complex formation – biochemical, FRET, CFP-Ran, YFP-importin-beta, homogeneous, primary screen; cell-free CFP-Ran/YFP-importin-beta FRET ratio; inhibition, % (test concentration not listed); actives 1.1% (n = 300,000); AID 2216;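 active means most replicates above 15%; inconclusive means exactly half above 15%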;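 further: 0% = DMSO wells and 100% = Ran loaded with GDP instead of GTP; wells of about 40 µL received 100 nL stock; the first replicate is given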
# Beta cell apopt: beta cell apoptosis inhibition. protection from apoptosis, % (concentration not given with the values). INS-1E cytokine-induced death, ATP luminescence, 48 h; percent of positive-control rescue, neutral wells zero. AID 435005. actives 0.8% (n = 300,000);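 active means all replicates at 75% or more, or half of them and the mean; inconclusive means half reach 75% but not the mean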;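 further: 0% = cytokine-treated negative control wells and 100% = positive control rescue; higher means more ATP so stronger rescue from cytokine killing; wells of about 40 µL received 100 nL stock; the first replicate is given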
# T cruzi inh: T. cruzi replication inhibition; T. cruzi beta-gal in NIH3T3, luminescence, 90 h; inhibition, % (concentration not given with the values); actives 1.4% (n = 300,000);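 active means mean inhibition across valid replicates above about 55%, limit read from the data; inconclusive means mean below that limit but half or more replicates reach it; inactive means mean below it, under half of replicates reach it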;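 further: signal also drops with host cell toxicity which is not excluded here; 0% = plate median of DMSO wells and 100% = zero luminescence signal; higher percent means less beta-gal luminescence so fewer parasites; stock transfer was 50 nL into about 50 µL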
# Bfl-1 A1 inh: inhibitors of the anti-apoptotic protein A1, read as caspase activation. MEF A1-2A-BIM cells, Caspase-Glo 3/7 luminescence, 3 h; percent of clofoctol response, vehicle zero. caspase activation, % (concentration not given with the values). actives 0.066% (n = 330,000). AID 2462;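 active means over half of replicate activation scores above 10%, or exactly half above 10 with the replicate mean above 10; inconclusive means replicate mean below 10 yet half the replicates above 10; inactive means over half of replicates below 10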;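 further: wells of about 30 µL received 50 nL stock; many hits fall short of the cut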
# AF4-AF9 inh: inhibitors of human MLL-AF4/AF9 interaction. AID 651704. actives 0.47% (n = 350,000). AlphaScreen, biotin-AF4 peptide binding to FLAG-AF9. inhibition, % at 10 µM;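 active means every replicate reaching a set inhibition limit, whatever the replicate mean, cut at about 25% in these data; inconclusive means mean inhibition reaches that limit but some replicates miss it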;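 further: 0% = plate neutral control median and 100% = total signal loss; the record names both 10 and 1 µM as test concentration; the first replicate is given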
# Target sequence (P42568 whole entry, looked up): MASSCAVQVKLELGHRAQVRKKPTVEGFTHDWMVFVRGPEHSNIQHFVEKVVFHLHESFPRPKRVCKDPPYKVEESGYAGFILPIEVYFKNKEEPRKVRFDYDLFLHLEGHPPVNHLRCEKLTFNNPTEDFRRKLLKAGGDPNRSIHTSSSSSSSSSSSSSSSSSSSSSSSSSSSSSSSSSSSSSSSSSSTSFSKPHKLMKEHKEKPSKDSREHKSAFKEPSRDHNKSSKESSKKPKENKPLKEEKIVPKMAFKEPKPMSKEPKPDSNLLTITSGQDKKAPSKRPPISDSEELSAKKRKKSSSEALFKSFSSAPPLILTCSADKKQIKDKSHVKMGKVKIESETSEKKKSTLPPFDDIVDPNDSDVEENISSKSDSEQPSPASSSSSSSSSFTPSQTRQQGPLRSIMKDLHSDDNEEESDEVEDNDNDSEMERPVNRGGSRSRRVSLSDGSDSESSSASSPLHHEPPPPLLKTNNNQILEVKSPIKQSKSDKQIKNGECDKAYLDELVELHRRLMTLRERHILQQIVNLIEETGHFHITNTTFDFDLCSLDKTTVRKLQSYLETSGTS
# Ecoli rRNA inh: inhibits bacterial ribosomal RNA function over humanized ribosomes. E. coli WT GFP vs humanized-ribosome RFP mutants, fluorescence, 24 h; hits give low values; DMSO median 0, no signal -100. GFP signal change (wild-type ribosome), % (no concentration beside the values). actives 1.6% (n = 350,000);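 active means significant combined selectivity score with lowered wild-type GFP, culture density cut under 30%, mutant RFP and density less affected; inactive means any of these conditions unmet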; further: one replicate is shown; some compounds called inactive have numbers as strong as hits
# Ecoli rRNA inh OD600: second read-out of Ecoli rRNA inh, no call of its own (marks repeat the call); OD600 change, %; measured here: OD600 growth;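 optical density of the mix in the first replicate; 0 = DMSO median and -100 = no signal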
# Ecoli rRNA inh RFP: further read-out of Ecoli rRNA inh, marked with its call; RFP signal change, %; measured here: RFP humanized mutant strains;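 first replicate; 0 = DMSO median and -100 = no signal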
# * hit, by the source's call; ? = inconclusive; / = not tested or not shown. This is a subset; the hit share may differ from the screen's.
# Field names – A = Vif A3G; B = Calb FLC; C = RanGTP-Impb inh; D = Beta cell apopt; E = T cruzi inh; F = Bfl-1 A1 inh; G = AF4-AF9 inh; H = Ecoli rRNA inh; I = Ecoli rRNA inh OD600; J = Ecoli rRNA inh RFP
SMILES: O=c1c(-n2cncn2)c[nH]n1-c1cccc(Cl)n1
  A: /	B: -9	C: 3.1	D: 5	E: -18	F: -1.5	G: 1.1	H: 10	I: 13	J: 2.8
SMILES: CCOC(=O)Cn1cc(C(=O)C(=O)N2CCOCC2)c2ccccc21
  A: /	B: -2	C: -1.6	D: -8	E: 7	F: 0.7	G: -2.3	H: 14	I: 9	J: 1.4
SMILES: CN(C(=O)CSc1nnc2ccccn12)C1CCS(=O)(=O)C1 (stereo not given)
  A: 5%	B: 14	C: 5.1	D: 0	E: -6	F: -1.0	G: /	H: /	I: /	J: /
SMILES: CNS(=O)(=O)c1ccc(NC(=O)C2c3ccccc3Oc3ccccc32)cc1
  A: 0%	B: 2	C: 0.0	D: -5	E: -5	F: 0.6	G: /	H: /	I: /	J: /
SMILES: CCNC(=O)C1Cc2cc(S(=O)(=O)N3CCCC3)ccc2N1C(C)=O (stereo not given)
  A: -2%	B: -13	C: 0.8	D: /	E: -14	F: 0.2	G: 0.2	H: 23	I: 22	J: 5.5
SMILES: CC(=O)Oc1oc(-c2ccccc2)nc1C=Nc1ccccc1
  A: 3%	B: -5	C: -1.4	D: -10	E: -2	F: 1.1	G: /	H: /	I: /	J: /
SMILES: OCC1(Cc2ccccc2)CCN(Cc2cnc(-c3ccc(Cl)cc3)nc2)CC1
  A: 4%	B: 8	C: -0.9	D: -1	E: 24	F: -0.4	G: -2.9	H: -55	I: -79	J: -18
SMILES: O=C(OCc1ccc(F)cc1)c1cccnc1Cl
  A: /	B: 1	C: 0.8	D: -2	E: -5	F: -1.1	G: -5.0	H: 7	I: 13	J: 0.8
SMILES: CCOc1ccccc1NC(=O)CCCn1cc([N+](=O)[O-])cn1
  A: -1%	B: 1	C: 3.1	D: 1	E: -1	F: 1.6	G: -1.5	H: -2	I: -7	J: -0.2
SMILES: O=S(=O)(c1ccc(F)cc1)N1CCC2(CC1)OCCN2S(=O)(=O)c1cccs1
  A: -1%	B: 1	C: 1.5	D: 5	E: 7	F: 1.0	G: ?	H: -8	I: -7	J: 2.4
SMILES: Cc1ccc2onc(CC(=O)O)c2c1
  A: -4%	B: -2	C: 1.5	D: -14	E: -7	F: -0.5	G: /	H: /	I: /	J: /
SMILES: CCN(CC)Cc1c(O)ccc2c(=O)c(-c3ccc(Cl)cc3)coc12
  A: /	B: 9	C: 2.5	D: -3	E: 5	F: 0.3	G: 1.8	H: -13	I: -6	J: -1.1
SMILES: CC1(C)CC(=O)C(C=Nc2ccc(N)cc2)=C(O)C1
  A: 1%	B: -9	C: ?	D: 1	E: -11	F: 0.8	G: 3.3	H: 10	I: 9	J: 38
SMILES: COc1cc(C(=O)Oc2cc(N)n(S(=O)(=O)c3ccc(F)cc3)n2)cc(OC)c1OC
  A: /	B: 0	C: 0.3	D: -2	E: -13	F: 0.0	G: -6.1	H: 0	I: 9	J: -1.2
SMILES: CCc1nnc(NC(=O)CSc2nnc(-c3ccco3)o2)s1
  A: 1%	B: 4	C: 1.8	D: 0	E: -29	F: 1.3	G: -6.1	H: 6	I: 6	J: -3.7
SMILES: CCOC(=O)C(NC(=O)Nc1ccc(Cl)cn1)(Oc1ccc(F)cc1)C(F)(F)F (stereo not given)
  A: /	B: 3	C: 2.1	D: -8	E: 0	F: 1.4	G: -8.1	H: 11	I: 14	J: 13
SMILES: O=C(NCC(O)c1ccc([N+](=O)[O-])cc1)C(c1ccccc1)c1ccccc1 (stereo not given)
  A: 4%	B: 7	C: 1.9	D: -1	E: -13	F: -0.2	G: 4.8	H: /	I: /	J: /
SMILES: COc1ccc(/C=N/OCC(=O)Nc2cc(C)on2)cc1OC
  A: 77%	B: 0	C: -0.6	D: 3	E: -7	F: -0.1	G: 4.5	H: 4	I: -2	J: -5.5
SMILES: Cc1ccc(C2(c3ccc(C)cc3)CC2C(=O)Nc2ccc([N+](=O)[O-])cc2O)cc1 (stereo not given)
  A: 2%	B: -13	C: -2.5	D: 125*	E: 55*	F: 27*	G: /	H: /	I: /	J: /
SMILES: Cc1oc(-c2cccc(Cl)c2)nc1CN1CCC(C(=O)NCc2cccnc2)CC1
  A: 0%	B: 18	C: 3.6	D: 0	E: 8	F: 0.6	G: /	H: /	I: /	J: /
SMILES: CCC(=O)N1c2ccc(C)cc2C2=NNC(=S)NC21O (stereo not given)
  A: ?	B: 3	C: 3.8	D: -4	E: 9	F: 0.3	G: /	H: /	I: /	J: /
SMILES: CCCCn1nc2cc(C(=O)NCCCCc3ccccc3)ccc2c1OCC
  A: -2%	B: 2	C: -4.0	D: -3	E: 4	F: -0.4	G: 4.8	H: -8	I: -27	J: 15
SMILES: CC(=O)c1cccc(NC(=O)CCC2CCCC2)c1
  A: 2%	B: -3	C: -1.8	D: -3	E: 9	F: -0.4	G: /	H: /	I: /	J: /
SMILES: CCN(CC(=O)NCc1ccc(F)cc1)C(=O)CN1CCN(c2cc(Cl)ccc2C)CC1
  A: /	B: -18	C: 1.2	D: -2	E: 18	F: -0.1	G: -0.6	H: -27	I: -68	J: 2.7
SMILES: O=C(CCSc1nnc(-c2ccncc2)o1)Nc1cccc(Cl)c1
  A: -9%	B: -7	C: 0.7	D: -2	E: -5	F: 0.0	G: -0.7	H: 11	I: 5	J: 0.5

# For convenience, eleven of the compounds above:
# Field names – A = Vif A3G; B = Calb FLC; C = RanGTP-Impb inh; D = Beta cell apopt; E = T cruzi inh; F = Bfl-1 A1 inh; G = AF4-AF9 inh; H = Ecoli rRNA inh; I = Ecoli rRNA inh OD600; J = Ecoli rRNA inh RFP
SMILES: O=c1c(-n2cncn2)c[nH]n1-c1cccc(Cl)n1
  A: /	B: -9	C: 3.1	D: 5	E: -18	F: -1.5	G: 1.1	H: 10	I: 13	J: 2.8
SMILES: CCOC(=O)Cn1cc(C(=O)C(=O)N2CCOCC2)c2ccccc21
  A: /	B: -2	C: -1.6	D: -8	E: 7	F: 0.7	G: -2.3	H: 14	I: 9	J: 1.4
SMILES: CN(C(=O)CSc1nnc2ccccn12)C1CCS(=O)(=O)C1 (stereo not given)
  A: 5%	B: 14	C: 5.1	D: 0	E: -6	F: -1.0	G: /	H: /	I: /	J: /
SMILES: CNS(=O)(=O)c1ccc(NC(=O)C2c3ccccc3Oc3ccccc32)cc1
  A: 0%	B: 2	C: 0.0	D: -5	E: -5	F: 0.6	G: /	H: /	I: /	J: /
SMILES: CCNC(=O)C1Cc2cc(S(=O)(=O)N3CCCC3)ccc2N1C(C)=O (stereo not given)
  A: -2%	B: -13	C: 0.8	D: /	E: -14	F: 0.2	G: 0.2	H: 23	I: 22	J: 5.5
SMILES: CC(=O)Oc1oc(-c2ccccc2)nc1C=Nc1ccccc1
  A: 3%	B: -5	C: -1.4	D: -10	E: -2	F: 1.1	G: /	H: /	I: /	J: /
SMILES: OCC1(Cc2ccccc2)CCN(Cc2cnc(-c3ccc(Cl)cc3)nc2)CC1
  A: 4%	B: 8	C: -0.9	D: -1	E: 24	F: -0.4	G: -2.9	H: -55	I: -79	J: -18
SMILES: O=C(OCc1ccc(F)cc1)c1cccnc1Cl
  A: /	B: 1	C: 0.8	D: -2	E: -5	F: -1.1	G: -5.0	H: 7	I: 13	J: 0.8
SMILES: CCOc1ccccc1NC(=O)CCCn1cc([N+](=O)[O-])cn1
  A: -1%	B: 1	C: 3.1	D: 1	E: -1	F: 1.6	G: -1.5	H: -2	I: -7	J: -0.2
SMILES: O=S(=O)(c1ccc(F)cc1)N1CCC2(CC1)OCCN2S(=O)(=O)c1cccs1
  A: -1%	B: 1	C: 1.5	D: 5	E: 7	F: 1.0	G: ?	H: -8	I: -7	J: 2.4
SMILES: Cc1ccc2onc(CC(=O)O)c2c1
  A: -4%	B: -2	C: 1.5	D: -14	E: -7	F: -0.5	G: /	H: /	I: /	J: /

# Next section
# Field names – A = Vif A3G; B = Calb FLC; C = RanGTP-Impb inh; D = Beta cell apopt; E = T cruzi inh; F = Bfl-1 A1 inh; G = AF4-AF9 inh; H = Ecoli rRNA inh; I = Ecoli rRNA inh OD600; J = Ecoli rRNA inh RFP
SMILES: FC(F)(F)c1cc(-c2ccc3c(c2)OCO3)nc(NCc2ccco2)n1
  A: -1%	B: ?	C: 7.2	D: -4	E: 33	F: 0.3	G: /	H: /	I: /	J: /
SMILES: COc1ccc(/C=N/NC(=O)c2ccccc2O)cc1CSc1ccccn1
  A: 15%	B: -11	C: 0.8	D: -2	E: 1	F: -0.3	G: /	H: /	I: /	J: /
SMILES: Cc1ccc(S(=O)(=O)NCCSc2nnnn2C)cc1
  A: 19%	B: 20	C: -0.1	D: 3	E: -8	F: -1.1	G: /	H: 2	I: 11	J: 0.0
SMILES: O=C(COC(=O)c1ccccc1Nc1ccc(SC(F)F)cc1)NCc1ccco1
  A: -1%	B: -3	C: 1.2	D: -1	E: -16	F: -4.2	G: /	H: /	I: /	J: /
